Bioassay records from PubChem BioAssay.
GALR2 ag = GALR2 receptor agonists, primary screen, cell-based; GALR2-expressing cells, agonist activation read-out; activation, %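 (tested at 5 µM)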; 140,000 tested, 0.48% active; AID 803, 2007;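 active = above mean plus 3 SD of all compounds, about 5% in these data, not always enough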;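 also: 0% = vehicle buffer wells and 100% = reference agonist at full effect; tested in CHO reporter cells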
RGS16-Gao HTS = modulators of RGS16 binding to Galphao, primary screen, biochemical, human proteins, multiplexed bead flow cytometry; Regulator of G-protein signaling 16 (Homo sapiens) + Guanine nucleotide-binding protein …; bead-based flow cytometry RGS16-Galphao binding, fluorescence; actives lie on both sides; binding response (% of control), % at 10 µM; 220,000 tested, 0.38% active;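 active = below 25% or above 175%, edge rows of some plates excepted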;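 also: Galphao activated by GDP with aluminum fluoride before binding; 100% = wells without compound and 0% = beads without RGS; some results beyond the cut were filed as inactive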
INS promoter inh = inhibitors of insulin promoter-driven GFP, primary screen, imaging, TRM-6 cells (human fetal islet line), eGFP reporter, cell count | reporter expression induced with tamoxifen | inhibition, % at 2 µM | 130,000 tested, 0.9% active | AID 1273, 2008;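 active = inhibition above the mean plus 3 SD, with well images judged a real hit on visual review, cut at about 60% in these data, passing the limit was not always enough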
PKD1 kinase inh = inhibitors of human PKD1 kinase, biochemical, fluorescence polarization; Serine/threonine-protein kinase D1 (Homo sapiens), Q15139; PKD1 kinase fluorescence polarization assay; inhibition, %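 (about 10 µM by stock and volumes)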; 200,000 tested, 0.056% active;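 active = inhibition of 50% or more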;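 also: controls were vehicle for no effect and a reference inhibitor for full effect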
Target sequence (Q15139 whole entry, looked up): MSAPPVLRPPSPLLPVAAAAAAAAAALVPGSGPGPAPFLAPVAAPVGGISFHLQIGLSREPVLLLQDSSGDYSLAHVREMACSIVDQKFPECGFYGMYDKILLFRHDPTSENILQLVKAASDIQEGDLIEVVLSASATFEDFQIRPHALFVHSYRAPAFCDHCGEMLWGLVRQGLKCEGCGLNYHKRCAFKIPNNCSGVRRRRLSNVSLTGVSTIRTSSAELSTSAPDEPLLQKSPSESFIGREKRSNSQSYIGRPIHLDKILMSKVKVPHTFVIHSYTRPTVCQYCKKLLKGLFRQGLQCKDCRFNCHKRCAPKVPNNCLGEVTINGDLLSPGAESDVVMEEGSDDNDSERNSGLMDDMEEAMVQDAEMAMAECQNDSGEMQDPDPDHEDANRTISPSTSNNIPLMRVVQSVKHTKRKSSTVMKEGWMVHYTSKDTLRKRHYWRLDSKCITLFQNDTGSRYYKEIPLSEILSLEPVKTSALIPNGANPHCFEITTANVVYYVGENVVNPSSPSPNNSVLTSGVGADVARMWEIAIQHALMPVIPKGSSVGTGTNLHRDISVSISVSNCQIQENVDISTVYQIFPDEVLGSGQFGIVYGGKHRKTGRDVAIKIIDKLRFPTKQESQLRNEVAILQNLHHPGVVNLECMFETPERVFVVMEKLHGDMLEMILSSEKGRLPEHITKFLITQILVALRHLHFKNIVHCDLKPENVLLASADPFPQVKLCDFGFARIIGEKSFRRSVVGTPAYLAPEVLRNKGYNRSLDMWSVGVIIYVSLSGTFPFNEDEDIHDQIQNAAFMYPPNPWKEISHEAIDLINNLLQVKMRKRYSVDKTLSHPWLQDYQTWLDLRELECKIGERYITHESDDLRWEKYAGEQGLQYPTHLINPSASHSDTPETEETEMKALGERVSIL
HSV replic up = enhancers of HSV replication in host cells, fold increase, host cell viability; HSV replication augmentation in cells; 220,000 tested, 0.005% active; maximum fold increase;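 active = peak rise of 1.5-fold or more in the series; tested in PC3 cells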;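 also: first round at 10 µM; read as green reporter fluorescence; hits show the peak of a series up to 25 µM; 1 = signal of infected wells without compound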
INS promoter inh cell count = further read-out of INS promoter inh, marked with its call; normalized cell count, %; measured here: cell count, toxicity; reference of the scale not given here;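 cells exposed to compound for 48 h; stained nuclei by imaging scaled within each plate; lower means fewer cells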
HSV replic up primary fold = second read-out of HSV replic up, no call of its own (marks repeat the call); fold increase; compound at 10 µM; measured here: primary screen fold increase 10 uM; tested in PC3 cells;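 GFP signal in the first replicate; 1 = infected wells without compound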
Active calls of the source: *; i = inactive; x = no result given.

Sample of the layout (five entries):
SMILES	GALR2 ag	RGS16-Gao HTS	INS promoter inh	INS promoter inh cell count	PKD1 kinase inh	HSV replic up	HSV replic up primary fold
CCOC(=O)c1cc(-c2ccc(OC(F)F)cc2)nc2c1c(=O)[nH]c(=O)n2C	3.9	99.5	-2.0	107.3	-3.8	i	0.83
CCOP(=O)(OCC)C(NC(=O)c1ccc(OC)c(OC)c1)c1ccccc1 (centres undefined)	x	95.2	-2.9	67.4	1.2	i	0.97
Cc1nnc(SCCn2c(N(C)Cc3ccccc3)nc3c2c(=O)n(C)c(=O)n3C)s1	-0.6	x	-11.1	155.5	-10.1	i	0.96
COc1ccc(OC)c(N/C=C2/CCCCC2=O)c1	-1.9	98.9	48.3	123.9	6.8	i	0.8
CCOc1ccccc1NC(=O)CCN(c1ccc(C)cc1)S(=O)(=O)c1ccccc1	-1.3	128.9	5.4	56.6	-6.2	i	1.06

The whole of this part, repeating the preview:
SMILES	GALR2 ag	RGS16-Gao HTS	INS promoter inh	INS promoter inh cell count	PKD1 kinase inh	HSV replic up	HSV replic up primary fold
CCOC(=O)c1cc(-c2ccc(OC(F)F)cc2)nc2c1c(=O)[nH]c(=O)n2C	3.9	99.5	-2.0	107.3	-3.8	i	0.83
CCOP(=O)(OCC)C(NC(=O)c1ccc(OC)c(OC)c1)c1ccccc1 (centres undefined)	x	95.2	-2.9	67.4	1.2	i	0.97
Cc1nnc(SCCn2c(N(C)Cc3ccccc3)nc3c2c(=O)n(C)c(=O)n3C)s1	-0.6	x	-11.1	155.5	-10.1	i	0.96
COc1ccc(OC)c(N/C=C2/CCCCC2=O)c1	-1.9	98.9	48.3	123.9	6.8	i	0.8
CCOc1ccccc1NC(=O)CCN(c1ccc(C)cc1)S(=O)(=O)c1ccccc1	-1.3	128.9	5.4	56.6	-6.2	i	1.06
COc1ccc(C2CC(O)(c3ccccc3)Oc3cc(OC)ccc32)cc1 (centres undefined)	x	116.0	x	x	x	i	0.73
Cc1ncc([N+](=O)[O-])n1CCOC(=O)Nc1ccc([N+](=O)[O-])cc1	-1.1	105.5	x	x	-14.3	i	1.03
C=C(C)C1CC=C(C)/C(=N/NC(=O)c2cccc([N+](=O)[O-])c2)C1 (centres undefined)	0.4	110.9	-23.3	93.4	-3.5	i	0.92
c1ccc2c(NCC3CCCO3)nc(N3CCCCC3)nc2c1 (centres undefined)	x	100.4	-58.3	102.5	1.1	i	0.92
COc1ccc(Cn2nnnc2CN2CCOCC2)cc1	-1.9	97.6	15.8	85.5	-14.4	i	0.86
CCc1nnc(N/N=C/c2c(C)[nH]c3ccccc23)n1N	x	105.1	-35.3	170.4	-9.8	i	0.95
N#C/C(=C(/O)COC(=O)CCCNC(=O)c1ccc(Cl)cc1)c1nc2ccccc2[nH]1	-2.2	89.0	x	x	-11.8	i	0.9
CCCc1ccc(OCC(=O)Nc2cc(S(=O)(=O)CC)ccc2O)cc1	x	97.8	x	x	-6.3	i	0.88
O=C(CNCC1CCCO1)Nc1ccccc1N1CCCCCC1 (centres undefined)	-1.1	102.6	2.9	109.0	-6.2	i	0.8
Cc1ccc(-n2c(C)cc(C(=O)COC(=O)C3=NNC(=O)CC3)c2C)cc1	-2.6	96.8	8.1	114.2	-2.4	i	0.94
N/C(=N\OC(=O)c1ccc(Br)o1)c1ccccn1	x	96.9	x	x	2.7	i	0.87
Cc1ccc(-c2csc(NC(=O)N3CCOCC3)n2)cc1	x	115.8	x	x	6.1	i	0.88
COc1ccc(-c2cc(-c3ccccc3)nc(SCC(=O)Nc3nccs3)c2C#N)cc1	-2.5	121.5	17.6	114.0	4.0	i	1.04
CCOC(=O)c1c(NC(=O)C2C3C=CC(C3)C2C(=O)O)sc2c1CC(C)CC2 (centres undefined)	x	98.8	35.0	81.5	1.5	i	0.97
Cn1nnnc1SCC(=O)Nc1ccccc1Cc1ccccc1	-2.2	106.2	x	x	-4.7	i	1.04
Cc1cc(C)cc(N2CC(C(=O)O)CC2=O)c1 (centres undefined)	-0.7	100.8	-12.0	198.5	-5.4	i	0.83
Cc1ccc(C)c(Cn2c(CO)nc3ccccc32)c1	-1.5	99.1	-21.1	94.4	-2.6	i	1.02
Cc1ncc(CO)c2cc(C(N)=O)c(=Nc3ccccc3)oc12	-0.1	87.4	x	x	10.3	i	0.72
O=C1CCCC(=O)N1c1ccc(O)cc1	x	114.6	-266.7	94.6	-5.6	i	0.93
COC(=O)C(Cc1ccccc1)NC(=O)CSc1nc(N)cc(=O)[nH]1 (centres undefined)	-1.2	103.7	x	x	-4.3	i	0.91
CC(=O)Oc1ccc(C(=O)Nc2cc(NC(=O)c3ccc(OC(C)=O)cc3)cc(C(=O)NC(C)(C)C)c2)cc1	-1.2	110.3	-2.7	89.9	-14.4	i	0.85
O=C(COC(=O)c1cccc(Br)c1)NCCC1=CCCCC1	x	99.6	x	x	4.2	i	1.08
Cc1ccccc1-n1ncc(C(C)NC(=O)c2ccccc2)c1C (centres undefined)	x	102.4	x	x	1.1	i	0.98
COC(=O)COc1ccc(-n2cnnn2)cc1	x	106.7	x	x	-3.4	i	0.98
O=C(CN1CCN(Cc2ccc(F)cc2Cl)C1=O)NCc1cccs1	x	98.8	-16.7	87.9	-4.0	i	0.94
Cc1[nH]c2ccc(F)cc2c1CCN(Cc1ccncc1)C(=S)Nc1ccccc1	x	104.3	-145.4	132.6	0.6	i	0.81
Cc1ccc(N=C2NC(=O)S/C2=C\c2ccco2)cc1	-1.1	92.0	21.9	104.4	-7.3	i	1.16
O=C(COC(=O)CCc1c[nH]c(=O)[nH]1)Nc1cccc(Cl)c1	-1.7	100.2	-168.0	35.4	-2.7	i	1.03
CCc1nc(N2CCN(S(=O)(=O)c3ccc(Br)cc3)CC2)c2c(C)c(C)sc2n1	-1.7	x	68.8	92.5	-12.2	i	0.7
Cc1nn(CCOc2ccccc2)c(=O)n1-c1cccc(F)c1	-1.4	103.0	6.7	83.0	-7.5	i	0.98
Cc1c(OCc2nn[nH]n2)ccc2c3c(c(=O)oc12)CCCC3	-0.1	91.7	-108.3	208.1	14.8	i	0.99
CCOC(=O)c1c(/N=C/C2=C(O)CCCC2=O)sc2c1CCCC2	x	97.5	x	x	x	i	0.72
CN(C)C(=O)NC(Nc1cccc([N+](=O)[O-])c1)C(Cl)(Cl)Cl (centres undefined)	x	110.8	57.1	91.9	0.2	i	0.89
O=C(c1ccc(Cl)c(S(=O)(=O)NCc2ccco2)c1)N1CCN(c2ccccc2F)CC1	-0.8	100.8	-21.7	103.3	-0.7	i	0.62
O=[N+]([O-])c1ccc(C2=Nn3cnnc3SC2)cc1	x	104.2	x	x	x	i	0.93
O=C(CN1C(=O)COc2ccc(S(=O)(=O)N3CCOCC3)cc21)NCc1ccco1	x	110.8	x	x	x	i	1.05
COc1ccc(CN2CCOCC2)cc1	-0.9	100.3	50.0	98.0	-5.6	i	0.89
CC(=O)Nc1nc(-c2ccccc2)ns1	-0.7	107.4	-7.9	129.7	-3.5	i	0.95
Cc1ccc(C)c(C2NC(=O)c3ccccc3N2)c1 (centres undefined)	x	99.6	x	x	x	i	0.64
CC1Cc2nc(SCC(=O)Nc3ccc4c(c3)OCO4)n(CCc3ccccc3)c(=O)c2S1 (centres undefined)	0.2	104.0	14.3	170.8	-1.9	i	0.84
O=C(c1ccccc1Oc1nnnn1-c1ccccc1)N1CCOCC1	-2.5	104.3	60.0	116.2	-3.0	i	0.96
COc1cc2c(cc1NC(=O)CSc1nccn1C)oc1ccccc12	0.6	104.4	-23.3	119.2	5.8	i	0.81
O=C(COC(=O)C1CCN(S(=O)(=O)c2cccs2)CC1)c1cc2ccccc2o1	-0.3	96.4	11.1	168.6	-3.3	i	0.93
CCC(C)(C(=O)NC1CCCC1)N(Cc1ccco1)C(=O)c1ccccn1 (centres undefined)	-1.3	97.9	-35.7	115.3	2.4	i	0.81
S=C(NCc1ccco1)N/N=C/c1cccnc1	x	102.6	x	x	x	i	1.03
Cc1onc(-c2ccccc2Cl)c1C(=O)Nc1cccc2cccnc12	0.8	100.1	-50.0	108.7	-9.7	i	0.85
COc1ccc(S(=O)(=O)N2CCC[C@H]2C(=O)NCc2ccc(Cl)cc2)cc1	x	116.8	x	x	x	i	1.09
CCOc1cc(C(N)=O)cc(Cl)c1OCC	x	100.7	x	x	-5.0	i	0.84
CS(=O)(=O)c1ccccc1-c1nc(-c2cccc(Cl)c2)no1	x	97.3	x	x	0.3	i	0.84
COc1ccc(-c2nc3ncccn3c2Nc2ccc3c(c2)OCCO3)cc1	-0.3	87.7	69.0*	55.3*	-6.1	x	x
O=[N+]([O-])c1cc(-c2nnc(-c3ccccc3)o2)ccc1Oc1ccc(Cl)cc1	-0.5	99.4	x	x	-8.2	i	0.92
Cc1ccc(S(=O)(=O)/N=C2\CN(C)C(=O)N2C)cc1	-1.4	116.9	-14.3	79.1	-0.9	i	0.97
O=C(NCCOc1ccccc1)C(=O)NCC1CCCO1 (centres undefined)	x	113.9	42.9	104.3	-4.6	i	1.06
O=C(Cn1nc(-c2ccccc2)c2ccccc2c1=O)Nc1ccc(F)cc1	x	92.6	x	x	x	i	1.09
OCc1ncccc1O	x	111.3	x	x	x	i	1

Ordered by value in RGS16-Gao HTS (descending): five from the list above.
Compound	GALR2 ag	RGS16-Gao HTS	PKD1 kinase inh	HSV replic up primary fold
COc1ccc(S(=O)(=O)N2CCC[C@H]2C(=O)NCc2ccc(Cl)cc2)cc1	x	116.8	x	1.09
O=C(c1ccccc1Oc1nnnn1-c1ccccc1)N1CCOCC1	-2.5	104.3	-3.0	0.96
Cc1onc(-c2ccccc2Cl)c1C(=O)Nc1cccc2cccnc12	0.8	100.1	-9.7	0.85
CCC(C)(C(=O)NC1CCCC1)N(Cc1ccco1)C(=O)c1ccccn1 (centres undefined)	-1.3	97.9	2.4	0.81
CS(=O)(=O)c1ccccc1-c1nc(-c2cccc(Cl)c2)no1	x	97.3	0.3	0.84

(listing goes on)
SMILES	GALR2 ag	RGS16-Gao HTS	INS promoter inh	INS promoter inh cell count	PKD1 kinase inh	HSV replic up	HSV replic up primary fold
CCOC(=O)c1cc(CC)sc1NC(=O)CC1SC(N)=NC1=O (centres undefined)	x	88.7	33.3	103.3	-2.8	i	0.99
Cc1ccc(NC(=O)CCC(=O)OCc2ccc(Br)cc2)cc1	0.1	108.1	-11.5	155.6	-9.3	i	1.01
COc1ccc(-c2[nH]ncc2CNCc2cc(C)n(C)n2)c(F)c1	x	102.3	x	x	0.0	i	0.98
CC(c1ccccc1)n1cc(C(=O)NCc2cccnc2)nn1 (centres undefined)	-0.1	79.9	0.0	145.2	-2.9	i	0.91
Cc1cc(-c2nn(-c3ccccc3F)cc2CN2CCN(c3ccncc3)CC2)c(C)s1	x	98.8	x	x	1.0	i	0.65
CNC(=O)COc1ccc(S(=O)(=O)Nc2ccc(C)cc2)cc1	x	106.0	x	x	x	i	0.95
Cc1ccccc1C(=O)NNC(=O)Nc1ccccc1	x	96.8	x	x	-1.1	i	1.01
Cc1ccc(S(=O)(=O)NCCc2ccccc2)cc1	-3.6	102.4	-29.2	96.7	-3.0	i	0.85
Cc1cc(C)c2[nH]c(=O)c(CN(CC3CCCO3)C(=S)NCc3ccco3)cc2c1 (centres undefined)	-0.4	101.2	x	x	7.4	i	0.72
CC(=O)Nc1nonc1NC(=O)CSc1ccccn1	-0.3	97.3	x	x	-4.7	i	0.79
CN(C)CCNC(=O)c1onc(CSc2ccc(F)c(F)c2)c1C(=O)NCCN(C)C	x	98.7	x	x	x	i	0.82
CCN(CC)C(=O)CSc1nnc(-c2cccc(OC)c2)o1	-1.0	115.9	56.2	104.6	-1.5	i	0.89
COC(=O)C1=NN(N=O)C2(CC(=O)N(c3cc(C)cc(C)c3)C2=O)C1 (centres undefined)	-1.6	82.7	-13.9	121.1	-15.5	i	0.91
CCOc1cc2c3c(c1)C(C)=CC(C)(C)N3C(=O)C2=O	x	111.8	13.3	79.0	-3.5	i	0.98
CCSc1ccccc1C(=O)Nc1ccc([N+](=O)[O-])cc1OC	x	107.9	x	x	-4.6	i	0.85
O=C(Nc1ccn(Cc2ccccc2F)n1)c1ccc(COc2ccc(Cl)cc2Cl)o1	-0.6	105.3	x	x	-4.9	i	0.95
Cc1ccc(S(=O)(=O)N2CCC(C(=O)Nc3nnc(-c4ccco4)s3)CC2)cc1	-2.5	107.0	x	x	-10.6	i	1.07
COc1ccccc1CN(C)C(C)C(=O)Nc1cccc(C(C)=O)c1 (centres undefined)	x	102.7	x	x	1.3	i	0.94
O=C(c1cc2nc(-c3ccco3)cc(C(F)(F)F)n2n1)N1CCN(c2ccccc2)CC1	-1.0	98.7	x	x	-5.4	i	0.95
Cc1cc(C)cc(N2C(=O)C3C4C=CC(C4)C3C2=O)c1 (centres undefined)	-0.7	95.5	57.9	56.8	0.9	i	1
